Ecoli growth – E. coli growth inhibition; Escherichia coli growth, OD600, 23 h; hits give low values; OD600 absorbance (test concentration not listed); actives 0.21% (n = 330,000);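 active = OD600 absorbance below the run mean of sample wells minus 3.6 SD, in any replicate, cut at about 0.56 in these data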;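 also: stock transfer was 300 nL into about 60 µL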
LANA-H2A inh – blocks KSHV LANA binding to histone H2A/H2B. cell-free LANA-H2A/H2B peptide, fluorescence polarization. inhibition, % (no concentration beside the values). actives 0.6% (n = 320,000). AID 2629; in the data active = inhibition mostly above about 10%, no sharp cut-off; inactive = mostly below about 6.7%;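 also: stock transfer was 7.5 nL into about 10 µL; 0% = median of vehicle wells and 100% = median of positive control wells; one replicate is shown; the record names a cut of 25% in any replicate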
UCH37 DUB inh – inhibitors of human deubiquitinating enzyme UCH37 | Q9Y5K5 | purified proteasome/UCH37, Ub-AMC cleavage fluorescence | inhibition, % (test concentration not listed) | actives 0.33% (n = 330,000) | AID 588478;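 active = mean of two replicates above 20%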;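 also: 0% = compound-free wells with enzyme and 100% = wells lacking proteasome; stock transfer was 100 nL into about 20 µL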
Target sequence (Q9Y5K5 whole entry, looked up): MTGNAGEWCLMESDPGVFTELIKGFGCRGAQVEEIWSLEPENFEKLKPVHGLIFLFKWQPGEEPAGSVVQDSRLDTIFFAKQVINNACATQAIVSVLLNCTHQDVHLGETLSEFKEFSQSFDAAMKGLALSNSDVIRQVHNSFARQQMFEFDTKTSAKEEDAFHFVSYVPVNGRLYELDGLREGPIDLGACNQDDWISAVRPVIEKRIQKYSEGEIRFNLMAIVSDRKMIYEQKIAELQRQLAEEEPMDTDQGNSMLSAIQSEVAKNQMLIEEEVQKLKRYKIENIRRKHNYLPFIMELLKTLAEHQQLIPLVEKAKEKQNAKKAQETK
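Material: Human UCH37 enzyme supplied as purified proteasome complex | Schedule: 30 min preincubation with enzyme, 25 min cleavage at room temperature | Detection: AMC fluorescence 355/460 nm | Measure: % inhibition of Ub-AMC cleavage fluorescence | Controls: Wells without proteasome as full block, compound-free enzyme plus substrate as uninhibited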
ALR H2O2 inh – blocks human ALR sulfhydryl oxidase activity | purified ALR, DTT oxidation, H2O2 HRP-luminol luminescence | inhibition, % (test concentration not listed) | actives 3.8% (n = 290,000) | AID 485317;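 active = mean and each replicate at 75% or more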;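 also: stock transfer was 7.5 nL into about 7.5 µL; 0% = neutral wells and 100% = wells with inactivated enzyme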
Target sequence (P55789 whole entry, looked up): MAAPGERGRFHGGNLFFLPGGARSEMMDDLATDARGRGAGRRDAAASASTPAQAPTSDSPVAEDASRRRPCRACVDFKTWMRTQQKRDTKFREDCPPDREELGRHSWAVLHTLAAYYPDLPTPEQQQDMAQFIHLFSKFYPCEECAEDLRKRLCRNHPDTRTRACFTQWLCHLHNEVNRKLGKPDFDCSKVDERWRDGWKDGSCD
FGF22 binding – FGF22 (human) thermal shift binding. Q9HCT0. recombinant FGF22 thermal shift, SYPRO orange fluorescence; percent of sucrose octasulfate shift, DMSO zero. calls only at 9.99 µM. actives 1.5% (n = 340,000). AID 651658;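 active = melting point raised past a set limit in the mean and every replicate; three in four hits are not shown here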
HNF4A DNA FP – change in binding of human HNF4 alpha to DNA; P41235; HNF4a-FITC DNA binding, fluorescence polarization, 1 h; activity change, % at 10 µM; actives 0.3% (n = 360,000); AID 1224865; in the data active = activity change above about 30%, passing the limit was not always enough;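 also: controls were the assay level and a saturating level of protein; the project sought stronger binding though the title names inhibitors; some compounds called inactive have numbers as strong as hits; positive values seem to mean higher polarization but the record does not say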
Target sequence (P41235 whole entry, looked up): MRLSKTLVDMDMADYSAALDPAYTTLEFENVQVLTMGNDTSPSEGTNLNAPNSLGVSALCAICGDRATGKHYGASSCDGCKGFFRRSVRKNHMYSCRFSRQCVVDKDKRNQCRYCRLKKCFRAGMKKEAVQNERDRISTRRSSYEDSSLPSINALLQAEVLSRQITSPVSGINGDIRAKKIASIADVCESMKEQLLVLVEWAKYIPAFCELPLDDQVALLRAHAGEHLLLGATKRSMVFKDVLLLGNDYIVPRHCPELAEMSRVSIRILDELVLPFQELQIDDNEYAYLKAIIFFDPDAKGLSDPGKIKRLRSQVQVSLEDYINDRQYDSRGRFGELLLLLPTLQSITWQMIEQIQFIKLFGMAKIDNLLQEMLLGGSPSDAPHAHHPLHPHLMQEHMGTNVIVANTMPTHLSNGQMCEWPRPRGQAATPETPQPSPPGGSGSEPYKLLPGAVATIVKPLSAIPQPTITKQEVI
B2AR ag – human beta-2 adrenergic receptor agonism by FAP; P07550; Am2.2-beta2AR cells, FAP receptor internalization, flow cytometry; reference of the scale not given here; response, % (no concentration beside the values); actives 0.43% (n = 340,000); AID 504454;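 active = response above a set limit, near 3 SD of response in nonfluorescent compounds, cut at about 42% in these data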;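 also: stock transfer was 100 nL into about 11 µL; a reference agonist was the positive control; negative values mostly stem from fluorescent compounds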
* marks the source's active call; other numbers are inactive results; i = inactive; . = not tested or not shown. The list is partial. The share of hits here may be higher or lower than overall.

SMILES	Ecoli growth	LANA-H2A inh	UCH37 DUB inh	ALR H2O2 inh	FGF22 binding	HNF4A DNA FP	B2AR ag
O=S(=O)(c1cccc(Cl)c1)N1CCC(c2nc3ccccc3[nH]2)CC1	0.71	-2.4	5.4	-2	i	-0.1	4
O=C(Oc1coc(CSc2nnc(NC(=O)C3CC3)s2)cc1=O)c1ccccc1	0.7	7.1	6.3	16	.	-1.2	-1
Cc1ccc(C(=O)N2CCN(S(=O)(=O)N3CCOCC3)CC2)cc1	0.67	-4.8	1.5	1	i	0.5	0
COc1ccccc1N1CCN(C(=O)C(F)F)CC1	0.71	-1.2	0.9	23	.	-0.3	2
Cc1ccccc1NC(=O)C(C)SCc1ccccc1 (stereo unspecified)	0.71	4.6	1.6	3	i	0.1	-3
CN(CCO)C(=O)c1ccc(-c2nn(C)c(=O)c3ccccc23)cc1	0.71	6.1	0.3	.	i	3.9	2
CC/S(CC1CC1(Cl)Cl)=N\S(=O)(=O)c1ccc(C)cc1 (stereo unspecified)	0.75	1.9	-2.2	-27	.	0.6	-3
CCOc1ccccc1/C=N/NC(=O)c1cccc(Cl)c1	.	0.8	.	-1	.	-2.5	-2
O=C(COC(=O)CSc1nnc(-c2ccc(Cl)cc2)o1)Nc1cc(Cl)ccc1Cl	0.73	-0.1	0.3	-7	i	1.3	-2
CCCc1nc(NCc2ccc3c(c2)OCO3)c2nnn(Cc3ccccc3Cl)c2n1	0.65	5.0	0.2	-9	.	-0.7	6
O=C1Nc2ccccc2C1(O)c1ccccc1O (stereo unspecified)	.	-0.1	.	2	i	-3.4	0
O=C(CN1CCN(C(C(=O)Nc2cc(C(F)(F)F)ccc2Cl)c2ccccc2)CC1)NC1CC1 (stereo unspecified)	0.64	.	0.5	.	i	-1.9	-3
CN1CCN(C(=S)Nc2cc(S(=O)(=O)N3CCOCC3)ccc2Cl)CC1	0.72	-4.7	-0.4	24	i	1.5	11
COC(=O)N1CN(C(=O)OC)CN(C(=O)OC)C1	0.76	3.1	0.6	-2	.	1.2	2
CCc1cc(C(=O)c2ccc(OC)cc2)c(NC(=O)CC(C)(C)CC(=O)O)s1	0.67	4.1	11	81*	i	-2.5	-1
COc1ccc2[nH]c(=O)c(CN(CCN(C)C)C(=O)NCc3ccccc3)cc2c1	0.67	0.2	-15	-14	.	0.7	-1
CC(C)[C@H](NC(=O)N1CCn2c1nc1ccccc12)C(=O)NCc1ccc2c(c1)OCO2	0.72	-2.1	3.4	-4	i	-1.9	-11
Cc1cc(NC(=O)CCCN2C(=O)/C(=C/c3ccccc3Cl)SC2=S)no1	0.7	5.0	1.7	-8	i	-1.2	4
Cc1cc(Cl)c(S(=O)(=O)N2CCN(c3ccc(F)cc3)CC2)cc1OCC(N)=O	0.72	-0.6	6.0	-7	.	1.6	9
O=S(=O)(c1ccc(Cl)cc1)N1CCN(C(=S)Nc2ccc(F)c(Cl)c2)CC1	0.74	-2.6	5.2	-5	.	-4.0	4
Cn1c(N)c(C(=O)CSc2nc3ccccc3c(=O)n2CCCN2CCOCC2)c(=O)n(C)c1=O	0.71	6.6	4.7	-5	i	5.5	-6
NC1CCN(c2cccc(Cl)n2)CC1	0.67	1.3	2.8	-1	.	.	.
C=CCOc1ccc(CNCc2cccnc2)cc1OCC	0.71	4.8	1.6	94*	i	3.6	-5
COc1ccc(C(C)NC(=O)C2CCCC2)cc1OC (stereo unspecified)	0.69	1.9	2.1	13	i	0.8	2
O=C(c1ccncc1)N1N=C(c2ccc(Cl)cc2)CC1c1ccccc1O (stereo unspecified)	0.62	-1.8	-3.2	4	i	18	-5

A portion of the results above:
SMILES	Ecoli growth	LANA-H2A inh	UCH37 DUB inh	ALR H2O2 inh	FGF22 binding	HNF4A DNA FP	B2AR ag
O=S(=O)(c1ccc(Cl)cc1)N1CCN(C(=S)Nc2ccc(F)c(Cl)c2)CC1	0.74	-2.6	5.2	-5	.	-4.0	4
Cn1c(N)c(C(=O)CSc2nc3ccccc3c(=O)n2CCCN2CCOCC2)c(=O)n(C)c1=O	0.71	6.6	4.7	-5	i	5.5	-6
NC1CCN(c2cccc(Cl)n2)CC1	0.67	1.3	2.8	-1	.	.	.
C=CCOc1ccc(CNCc2cccnc2)cc1OCC	0.71	4.8	1.6	94*	i	3.6	-5
COc1ccc(C(C)NC(=O)C2CCCC2)cc1OC (stereo unspecified)	0.69	1.9	2.1	13	i	0.8	2
O=C(c1ccncc1)N1N=C(c2ccc(Cl)cc2)CC1c1ccccc1O (stereo unspecified)	0.62	-1.8	-3.2	4	i	18	-5

Carrying on.
SMILES	Ecoli growth	LANA-H2A inh	UCH37 DUB inh	ALR H2O2 inh	FGF22 binding	HNF4A DNA FP	B2AR ag
CC1Cc2ccccc2N1C(=O)COC(=O)/C=C/c1cccc(F)c1 (stereo unspecified)	0.69	-0.6	1.8	.	i	-2.2	-9
Cc1ccc(-c2noc(CN3CCCCC3)n2)cc1	0.71	-0.2	0.9	0	.	-0.1	3
CC(C)n1cnc2c(NCc3ccccc3)cc(N[C@H](C)CO)cc21	.	2.6	2.0	18	.	23	-4
Cc1ccc(C(=O)C[n+]2cccc3ccccc32)cc1	0.75	-3.3	-1.0	18	.	5.3	i
C#CCOCCOCCOCCNc1nc(N2CCN(C(=O)[C@H](CCC(=O)O)n3cc(C(N)CO)nn3)CC2)nc(N2CCN(C(=O)[C@H](Cc3ccc(O)cc3)n3cc(C(N)[C@H](C)CC)nn3)CC2)n1 (stereo partly specified)	.	-2.9	0.4	-3	i	.	.
CN(C(=O)c1ccc(F)cc1)c1ccc(OCC(=O)Nc2ccccc2C(=O)O)cc1	0.73	-1.5	5.7	-7	i	0.6	-5
CCCNC1=CC(=O)CC(C)(C)C1	0.69	3.0	-1.6	-2	i	0.8	-8
COc1ccc(S(=O)(=O)CCC(=O)NCCc2ccc(C)cc2)cc1	0.67	-0.5	2.2	0	.	-2.5	-2
CC(C)n1cc(CN2CCCC(CO)(Cc3cccc(Cl)c3)C2)cn1 (stereo unspecified)	0.7	-3.7	3.3	-6	i	3.1	-5
COc1cc(OC)cc(OC(=O)C2CCN(C(=O)c3ccc(Cl)cc3)CC2)c1	0.7	2.5	4.1	-33	i	5.8	6
Cc1ccc(N(C(=O)c2snc(C(N)=O)c2N)C(C(=O)NCC2CCCO2)c2c[nH]c3ccccc23)cc1 (stereo unspecified)	0.69	2.9	-16	.	i	-4.2	1
O=C(C1=C[C@H](c2csc3ccccc23)C[C@H](OCc2ccc(CO)cc2)O1)N1CCCCCCC1	.	-1.5	-0.5	-10	i	.	.
Cc1ccc(-n2cccc2C(=S)N=P(N(C)C)(N(C)C)N(C)C)cc1	0.65	-3.2	1.5	8	.	-0.2	-1
CC1Cc2ccccc2N1C(=O)CSCC(=O)O (stereo unspecified)	0.68	-2.0	4.1	-7	.	2.7	-10
O=C(CNC(=S)N(CCCN1CCOCC1)Cc1cccs1)NC1CCCCC1	0.67	-3.5	2.4	1	i	1.2	5
Cc1ccc(C(=O)Nc2ccccn2)cc1S(=O)(=O)N1CCOCC1	0.69	-0.5	-2.3	-2	i	1.1	-5
CN1c2ccsc2/C(=N/Nc2ccccc2)CS1(=O)=O	.	1.1	.	99*	i	-3.5	4
CC(C)c1cc(C(=O)N/N=C/c2ccco2)n[nH]1	.	2.0	.	83*	i	0.7	0
CC(=O)c1ccc(NC(=O)CSc2nnc(Cn3c(=O)sc4ccccc43)n2C)cc1	0.66	-1.8	-3.8	-6	i	5.9	5
CCC1CCCCN1S(=O)(=O)c1ccc(NC(=O)C2CCCO2)cc1 (stereo unspecified)	0.68	-0.3	0.4	-3	i	4.8	1
O=C(OCC(=O)N(Cc1ccccc1)Cc1ccccc1)c1ccccc1O	0.67	-0.9	0.4	.	i	-1.8	0
COc1ccc(NC(=S)N(Cc2ccccn2)Cc2ccccc2Cl)cc1	0.7	2.3	0.4	.	i	1.3	-3
CC(=O)Nc1ccc(NC(=O)c2ccc(COc3ccc(C)cc3)o2)cc1	0.71	-0.1	-8.8	-15	i	-1.7	-14
O=C(CN1C(=O)NC2(CCCC2)C1=O)Nc1nc2c(F)cc(F)cc2s1	0.68	-2.6	2.3	0	.	8.5	2
Cc1cccn2cc(COc3ccc(-c4ccccc4)cc3)nc12	0.69	.	-0.9	.	i	5.3	5

Additional records:
SMILES	Ecoli growth	LANA-H2A inh	UCH37 DUB inh	ALR H2O2 inh	FGF22 binding	HNF4A DNA FP	B2AR ag
O=C(Nc1cccc2ccccc12)N1CCN(Cc2ccccc2)CC1	0.8	-4.1	0.5	-33	.	5.7	-2
COCC(=O)Nc1cccc(C(F)(F)F)c1	0.69	-1.4	5.3	.	.	-1.1	-3
Nc1c(Cl)cc(-c2[nH]c3cc(C(=O)NCCO)ccc3c(=O)c2O)cc1Cl	0.69	-1.4	-3.4	-3	i	0.1	-3
Nc1nc(SCc2nnc(SCC(=O)O)n2-c2ccccc2)nc2sc3c(c12)CCCC3	0.66	1.2	1.5	70	.	5.6	14
COc1ccc(C)cc1N(CC(=O)NCCSCc1cccc(Cl)c1)S(C)(=O)=O	0.66	-4.9	3.5	.	i	-1.1	-2
Cc1ccc(C(=O)Oc2cccc(NC(=O)c3ccco3)c2)cc1S(=O)(=O)N1CCC(C)CC1	0.69	-0.1	-0.7	-1	.	-2.3	9
CN(C(=O)C12CC3CC(CC(C3)C1)C2)C1CCS(=O)(=O)C1 (stereo unspecified)	0.65	-1.3	2.0	-2	.	0.1	0
CCCCn1nc2cc(C(=O)NCc3ccc(C(F)(F)F)cc3C(F)(F)F)ccc2c1OCC	0.72	-2.7	-13	-6	i	3.7	-6
CC(=O)N1CCc2cc(S(=O)(=O)CCC(=O)N3CCN(c4ccccc4)CC3)ccc21	0.63	-2.8	1.0	25	i	-2.4	-6
COc1ccc(C(=O)Nc2ccccc2C(=O)N/N=C/c2ccco2)cc1	.	-7.4	.	-3	i	-0.2	-10
CN(C)C(=O)Nc1ccc(F)cc1F	0.71	2.7	1.8	-18	.	0.1	-4
N#Cc1ccc(C23CC4(C2)[C@H](CN(Cc2ccc(C(F)(F)F)cc2)[C@@H]4c2ccccc2)C3c2ccccc2)cc1 (stereo partly specified)	.	-2.3	4.5	21	i	11	4
c1ccc(Oc2nc(-c3cccnc3)nc3ccccc23)cc1	0.68	-0.8	-2.6	-6	i	1.8	-8
O=C(NC(=S)Nc1ccccc1Br)c1ccc2c(c1)OCO2	0.69	-5.1	-2.4	2	i	0.1	-2
Cc1ccc(NC2CCCN(C(=O)c3cnsn3)C2)cc1C (stereo unspecified)	0.69	-0.2	4.7	99*	i	1.2	-4
COc1ccc(N2CCN(C(=O)c3cc(-c4ccc(F)cc4)[nH]c3C)CC2)cc1	0.67	0.9	2.5	34	i	-0.4	-3
CCNC(=O)C1CC(=O)N(Cc2ccc3c(c2)OCO3)C(=Nc2ccc(F)cc2)S1 (stereo unspecified)	0.71	0.8	2.1	-7	.	-0.9	-5
CCOC(=O)CC1C(=O)NCCN1C(=S)NC(=O)c1ccccc1OC (stereo unspecified)	0.68	-3.1	1.8	5	i	1.8	5
O=C1C2CCCN2C(c2ccccc2)N1c1ccc(Cl)cc1 (stereo unspecified)	0.75	1.2	1.8	-33	.	3.4	-2
OCCC1CN(Cc2nc(-c3ccccc3)cs2)CCN1CCc1ccccc1 (stereo unspecified)	0.68	1.4	-1.9	-15	i	2.1	4
Cc1nn(-c2ccccc2)c(Cl)c1/C=C(\C#N)C(=O)NC(C)C	0.7	-3.0	2.1	55	i	-2.8	4
CCc1ccccc1N(C(=O)c1snc(C(N)=O)c1N)C(C(=O)NCC1CCCO1)c1c[nH]c2ccccc12 (stereo unspecified)	0.69	-1.2	-29	1	i	-4.4	15
O=C(NC1CCCC1)C(c1ccco1)N(C(=O)c1csnn1)c1ccccc1 (stereo unspecified)	0.64	-2.2	0.8	-1	i	1.7	-10
